# VDR inh = vitamin D3 receptor (human) inhibition; P11473; VDR-SRC2-3 peptide fluorescence polarization, 2 h; Potency, µM, for the others: max response, negative = inhibition, actives largely listed as inhibitors; hit rate 0.93% among 400,000; active = well fitted inhibition curve with a large enough effect; inconclusive = small, poorly fitted or top-dose-only effect, or another doubt; inactive = no such curve, though single readings can be large or run the other way; note: series mostly up to about 120 µM
# Target sequence (P11473 whole entry, looked up): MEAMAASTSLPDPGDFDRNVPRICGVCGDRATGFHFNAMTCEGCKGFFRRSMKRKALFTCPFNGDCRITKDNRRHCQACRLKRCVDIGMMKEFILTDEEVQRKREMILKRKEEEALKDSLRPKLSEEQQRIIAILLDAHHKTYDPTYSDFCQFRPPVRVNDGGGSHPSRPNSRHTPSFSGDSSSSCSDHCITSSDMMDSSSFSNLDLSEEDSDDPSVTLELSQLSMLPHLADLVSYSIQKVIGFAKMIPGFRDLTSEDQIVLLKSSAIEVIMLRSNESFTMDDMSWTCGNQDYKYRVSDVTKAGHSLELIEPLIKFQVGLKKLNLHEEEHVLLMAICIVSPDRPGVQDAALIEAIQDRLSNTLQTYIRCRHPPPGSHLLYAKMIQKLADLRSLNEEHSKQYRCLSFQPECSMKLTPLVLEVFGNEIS
#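 Two reagent solutions held at 4 deg C in the dark were dispensed, compounds pinned at 23 nl, and the mixture incubated 2 h at room temperature. Read-out: fluorescence polarization of VDR–SRC2-3 peptide binding.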
# Starred values were filed as active, the others as inactive; ? = inconclusive; & = joins results of further samples. % is set by controls: 0 for no effect and ±100 for the full control effect; potency is the fitted concentration of half-maximal effect. Only part of the results is shown (hit frequency here may not be typical).
SMILES,VDR inh
Cc1ccc2c(c1)C1CN(C)CCC1N2C(=O)c1ccccc1NS(=O)(=O)c1ccc(F)cc1C (stereo not drawn),-13%
CC(=O)Nc1ccc(-c2nnn(CC(=O)Nc3ccc4c(c3)OCO4)n2)cc1Cl,-5%
O=C(O)c1cccc(S(=O)(=O)N2Cc3ccccc3C2)c1,11%
CCOC(=O)/C(=N\Nc1cccc(C(F)(F)F)c1)N1CCOCC1,-13%
O=C(COc1cccnc1[N+](=O)[O-])Nc1ccc2c(c1)CCC2,-13%
CC(C)C(NC(=O)c1ccco1)C(=O)NCC(c1ccco1)N(C)C (stereo not drawn),9%
O=C(Nc1ccc(Cn2nnc3ccccc32)cc1)c1ccco1,1%
CCC(=O)Nc1ccc2c(c1)Cc1cc([N+](=O)[O-])ccc1-2,-2%
CN1CCCC(OC(=O)c2cccc(Cl)c2)C1 (stereo not drawn),-4%
NC(=O)CSc1nnnn1CC(CC(=O)O)c1ccccc1 (stereo not drawn),3%
O=C(NCc1cccnc1)c1ccc(COc2ccccc2Br)o1,-1%
COc1cccc(/C=C2\SC(=S)N(c3cccnc3)C2=O)c1OC,-9%
NC(=O)N/N=C\c1ccc([N+](=O)[O-])o1,-1%
CC(=O)c1cn(N(C)c2ncc(C(F)(F)F)cc2Cl)c(=O)[nH]c1=O,-5%
O=C(CC1SC(N2CCOCC2)=NC1=O)Nc1ccccc1F (stereo not drawn),-8%
COc1ccccc1CN(Cc1nc2ccccc2c(=O)[nH]1)S(=O)(=O)c1ccc2ccccc2c1,-2%
O=C(CCC(=O)N1CCc2ccccc2C1)NCCc1ccc(Cl)cc1,25%
CCCCN(CC)C(=O)CSc1nc2ccccc2c(=O)n1CC1COc2ccccc2O1 (stereo not drawn),8%
COC(=O)c1ccc(CN2CCN(C(C)C)C(CCO)C2)cc1 (stereo not drawn),0%
COC(=O)[C@@H](NC(=O)c1ccc2c(c1)S(=O)(=O)c1ccccc1C2=O)C(C)C,18%

# Given field by field: entries from further up.
O=C(NCc1cccnc1)c1ccc(COc2ccccc2Br)o1
  VDR inh = -1%
COc1cccc(/C=C2\SC(=S)N(c3cccnc3)C2=O)c1OC
  VDR inh = -9%
NC(=O)N/N=C\c1ccc([N+](=O)[O-])o1
  VDR inh = -1%

# Additional records follow.
SMILES,VDR inh
c1ccc(Cn2c3ccccc3c3nnc(SCCN4CCCCC4)nc32)cc1,-3%
Cc1ccc(/C(N)=N/OC(=O)c2ccc(Cl)cc2Cl)cc1,-9%
Cc1nc(-c2ccc(NC(=O)c3ccccc3Br)cc2)cs1,9%
Cc1cccc(NC(=O)C(NS(=O)(=O)c2cccc3nsnc23)c2ccccc2)c1C (stereo not drawn),-7%
CC(=O)NCCc1c[nH]c2ccc(OCc3ccccc3)cc12,-14%
Cc1oc(/N=C/c2cccc([N+](=O)[O-])c2)c(C#N)c1C,?
CC1CC(C)CN(CCCNC(=O)C2CCCN(c3nnc(N4CCCC4=O)s3)C2)C1 (stereo not drawn),-2%
COc1ccccc1C(O)(C(=O)NNc1ccccc1C)c1ccccc1OC,9%
CCc1ccc(OCC(=O)Nc2ccc(S(=O)(=O)N3CCOCC3)cc2)cc1,-15%
O=C(O)C1C(c2ccccc2)C(C(=O)N2CCOCC2)C1c1ccccc1 (stereo not drawn),16%
COc1ccc(S(=O)(=O)Nc2ccccc2C(=O)NN2CCOCC2)cc1OC,-8%
O=C(Nc1cccc(F)c1)C1CCCN(S(=O)(=O)c2ccccc2)C1 (stereo not drawn),5%
COC(=O)c1ccccc1NC(=O)CSc1nnc(-c2ccc(OC)cc2)n1C,-19%
Cc1cc2c3c(c1)C(C)CC(C)(C)N3C(=O)C2=O (stereo not drawn),-23%
O=C(CCN1C(=O)/C(=C/c2ccccc2Cl)SC1=S)NC1CCCC1,-6%
O=C(CN1CCN(c2ccc([N+](=O)[O-])cc2Cl)CC1)N1CCOCC1,-7%
O=C1CSC(c2ccc(Cl)cc2Cl)N1c1ccccn1 (stereo not drawn),-4%
Cc1cc(NC(=O)c2cc(-c3ccc(Br)cc3)on2)nn1Cc1ccc(Cl)cc1,-9%
CNC(=O)[C@H]1O[C@@H](n2cnc3c(NCc4cccc(I)c4)nc(Cl)nc32)[C@H](O)[C@@H]1O,-9%&7%
CCc1ccc(C2CC(=O)NC(NC(=O)c3ccc(C(C)(C)C)cc3)=N2)cc1 (stereo not drawn),-11%
Cc1cccc(NC(=O)CN2C(=S)NC(C)(C)CC2C)c1 (stereo not drawn),-22%
COc1ccc(CCNC(=O)CSCc2nc(-c3cccc(C)c3)oc2C)cc1OC,-14%
Cc1cc(C)n(CC(O)Cn2c3ccc(Br)cc3c3cc(Br)ccc32)c(=O)n1 (stereo not drawn),9%
O=C(c1ccc(Cl)c(Cl)c1)c1cc(-c2ccccn2)c(N2CCOCC2)s1,-20%
Cc1cc(NCCN2CCOCC2)n2ncc(-c3ccccc3)c2n1,-2%
CC(C)c1ccccc1N=C1SCCCN1C(=O)c1cccc(N2C(=O)CCC2=O)c1,13%
Cc1ccnc(NC(=O)Cc2ccc(-c3ccccc3)cc2)c1,-5%
C=CCc1cccc(Cl)c1OCCON1C(=O)CCC1=O,11%
COc1ccc(C(=O)Nc2cccc(C(=O)OCc3cc(=O)n4nc(C5CC5)sc4n3)c2)cc1,23%
COc1cccc(NC(=S)NNC(=O)Cn2nc(C(F)F)cc2C(F)F)c1,-2%
CCOc1ccc2c(c1)c(=O)c(S(=O)(=O)c1ccc(CC)cc1)cn2CC,12%
CCn1nnnc1NCc1ccc(N2CCCC2)cc1,?
Cc1ccccc1CSc1nnc(-c2cnccn2)n1C,-3%
COc1ccccc1-c1nnc(SCC(=O)NC2CCS(=O)(=O)C2)n1CCc1ccccc1 (stereo not drawn),10%
Cc1cc(=O)[nH]c2nnc(SCc3cccc(C(F)(F)F)c3)n12,10%
CCC(C)NC(=O)C(Sc1ccccc1)c1ccccc1 (stereo not drawn),11%
O=C(CS(=O)Cc1ccccc1Cl)Nc1ccccc1Cl (stereo not drawn),1%
O=C(Nc1cc([N+](=O)[O-])ccc1O)NC1CCS(=O)(=O)C1 (stereo not drawn),-5%
CCOC(=O)c1ccccc1NC(=O)CCNC(=O)Cn1cnc2ccccc2c1=O,13%
O=C(CC1C(=O)CCCC1=O)c1ccccc1,6%
COc1ccc(CCNC(=O)c2c(C)oc3ncn(CC(C)C)c(=O)c23)cc1OC,8%
CC(C)(C)C1=C[C@@H](CO)C[C@@H](CO)C1,-19%
N#Cc1nc(-c2ccco2)oc1NCc1ccccc1Cl,-9%
O=C(O)c1ccc(Cl)c(S(=O)(=O)NCc2cccnc2)c1,4%
CC(=O)c1cccc(NCC(=O)c2ccc(C)c([N+](=O)[O-])c2)c1,?
Cc1ccc(S(=O)(=O)NC(C)(C)CSc2nncn2N)cc1,8%
CC(C)C(NC(=O)C12CC3CC(CC(C3)C1)C2)C(=O)N/N=C/C1=C(N2CCOCC2)C(=C\c2cccc([N+](=O)[O-])c2)/CC1 (stereo not drawn),-2%
Cc1cc(OCC(=O)NCCCn2ccnc2)c2c(C)c(C)c(=O)oc2c1,-4%
CCOC(=O)c1ccc(N2C(=O)CC(SCC(=O)Nc3ccc(S(N)(=O)=O)cc3)C2=O)cc1 (stereo not drawn),?
Cc1ccccc1CC(=O)Nc1ccc2c(c1)CCC2,-7%
Cc1cccc(S(=O)(=O)Nc2nc3ccccc3nc2OC(C)C)c1,-27%
Cc1ccccc1NC(=O)c1cc2c([nH]c1=O)CC(C)(C)CC2=O,2%
Cc1ccc(C)c(NC(=O)CN(C)C(=O)c2cccc(N3C(=O)CCC3=O)c2)c1,17%
COc1cccc(C(=O)CSc2nc3ccccc3n2CC(=O)N2CCOCC2)c1,-7%
O=C(Cc1ccc(S(=O)(=O)N2CCOCC2)s1)NCC(=O)Nc1ccccc1Br,-24%
Cn1c2ccccc2c2nnc(SCC(=O)Nc3cccc(O)c3)nc21,-4%
O=C(N1CCOCC1)N1c2ccccc2CC(N2CCOCC2)c2ccccc21 (stereo not drawn),0%
O=C1C=C(NC2CCCCC2)CCC1,-4%
CN(C(=O)c1ccc(NC(=O)Cc2ccc(NC(=O)C3CCCN(C(=O)c4ccccc4)C3)cc2)cc1)C1CCCC1 (stereo not drawn),8%
CCOC(=O)C[C@H]1c2cc(F)ccc2S(=O)(=O)N1C(C)(C)C,15%

# No new results follow: an excerpt of the list.
SMILES,VDR inh
Cc1ccc(C)c(NC(=O)CN(C)C(=O)c2cccc(N3C(=O)CCC3=O)c2)c1,17%
COc1cccc(C(=O)CSc2nc3ccccc3n2CC(=O)N2CCOCC2)c1,-7%

# Laid out differently: results already given
O=C(c1ccc(Cl)c(Cl)c1)c1cc(-c2ccccn2)c(N2CCOCC2)s1
  VDR inh = -20%

Cc1cc(NCCN2CCOCC2)n2ncc(-c3ccccc3)c2n1
  VDR inh = -2%

CC(C)c1ccccc1N=C1SCCCN1C(=O)c1cccc(N2C(=O)CCC2=O)c1
  VDR inh = 13%

# (list continues)
SMILES,VDR inh
O=C1N=C(N2CCOCC2)S/C1=C\c1cccnc1,4%
CCOC(=O)c1cccc(NC(=O)N2CCC(CN3CCCCCC3)CC2)c1,10%
Cc1c(C(=O)NCc2ccccn2)oc2ccc(S(=O)(=O)N3CCC4(CC3)OCCO4)cc12,0%
CC(C)NC(=O)CSc1nc(Cc2ccccc2)nc2ccccc12,-15%
O=C(COC(=O)c1n[nH]c2ccccc12)NCCc1ccccc1,-4%
O=C1NCCCCC1NS(=O)(=O)c1ccc(F)c(F)c1 (stereo not drawn),-12%
CCOC(=O)c1cc2n(n1)C(C(F)(F)F)CC(C)N2 (stereo not drawn),1%
CCC(=O)NC(=S)Nc1ccc(S(=O)(=O)NC(C)=O)cc1,13%
CCCC(=O)NC(=S)Nc1ccc(Cl)cn1,2%
COc1ccccc1NS(=O)(=O)c1cc(NC(=O)c2ccc(NC(C)=O)cc2)ccc1N1CCOCC1,?
Cc1cccc(C(=O)NC(=S)NCc2ccccc2)c1,-15%
COc1ccc(S(=O)(=O)N2CCOCC2)cc1NS(=O)(=O)/C=C/c1ccccc1,1%
COc1ccc(F)cc1CN1CCN(CC(=O)N2CCc3ccccc32)CC1,-5%
COc1ccccc1NC(=S)NNC(=O)c1ccc(Cl)cc1Cl,-4%
Cc1ccc(S(=O)(=O)NC(=S)c2ccccc2)cc1,-10%
Cn1c(C(=O)OCC(=O)NCC2CCCO2)cc2sccc21 (stereo not drawn),-11%
CCOc1ccc(NC(=O)CSc2nncc(=O)[nH]2)cc1,6%
c1ccc(-c2noc(CSc3nc4ccccc4o3)n2)cc1,-21%
COC(=O)c1cccc(NC(=O)CSc2nnc(C)o2)c1,-1%
O=C(CSc1ccc2ccccc2c1)Nn1cnnc1,14%
Cc1ccc(C(=O)Nc2cc(Cl)ccc2-n2cncn2)s1,-3%
O=c1c(-c2ccc(Cl)cc2)nc2cnc(N3CCOCC3)nc2n1Cc1ccc(F)cc1,-2%
C=CCn1c(SCc2ccc([N+](=O)[O-])cc2)nnc1C(C)NC(=O)c1ccccc1 (stereo not drawn),-2%
COc1cc(C2C(C(N)=O)=C(C)Nc3nc(CCCO)nn32)cc(OC)c1OC (stereo not drawn),-20%
CC1CCN(c2nn3c(=O)c(C(=O)NCCc4ccccc4)cnc3s2)CC1,2%
CCOC(=O)c1c(NC(=O)c2cc(OC)c(OC)c(OC)c2)sc2c1CCCC2,-11%
O=C(Nc1cccc(S(=O)(=O)N2CCCCC2)c1)c1ccc2ncsc2c1,-9%
COc1ccccc1-c1nnc2n1N=C(c1ccc(OC(F)F)c(OCC3CC3)c1)CS2,?
CC(=O)/C=C/c1ccccc1Oc1c(F)c(F)nc(F)c1F,?
CCCCCOc1ccc(NC(=O)Cc2csc(C)n2)cc1,5%
Cc1ccc(Nc2nc(-c3ccc(C)cc3)c(CC(=O)O)s2)cc1,-11%
O=C(NNc1ccc([N+](=O)[O-])cc1[N+](=O)[O-])C1C2CCCCC21 (stereo not drawn),-19%
CCOc1ccc(C(C)NC(=O)C2CCC2)cc1 (stereo not drawn),2%
C=CCn1c(SC2CCOC2=O)nc2scc(C3CC3)c2c1=O (stereo not drawn),13%
Cc1ccc2c(C)c(C(=O)N(C)CCC3CCCCO3)oc2c1C (stereo not drawn),-5%
Cn1c(C(=O)N/N=C/c2ccccc2)cc2ccccc21,-11%
O=C(c1ccc(Cl)cc1)N1CCCOC1,-2%
N#CCc1ccc(NC(=O)c2ccccc2C(=O)Nc2ccc(CC#N)cc2)cc1,-17%
COc1ccc(-n2ncc3c(=O)n(CC(=O)N(C(C)C)C(C)C)cnc32)cc1,-12%
COc1cc(C2c3sc(=O)[nH]c3SC3C(=O)N(c4ccc(C)cc4)C(=O)C32)ccc1O (stereo not drawn),-3%
CCOC(=O)C1CCN(C(=O)c2ccccc2N(C)S(=O)(=O)c2ccccc2)CC1,-3%
